Source: PubChem (ICCB-Longwood Screening Facility, Harvard Medical School)
MbtI inh: inhibitors of Mycobacterium tuberculosis siderophore enzyme MbtI. inhibition, %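 (about 17 µg/mL by stock and volumes)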. P9WFX0. purified MbtI enzyme, fluorescence intensity read-out. AID 493033. hit rate 0.89% among 100,000;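 active = above 50% in both replicates, above 80% if mildly self-fluorescent; inactive = the rest, strongly fluorescent compounds included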;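 also: 0% = mean of negative and 100% = mean of positive controls; one replicate is shown; some compounds called inactive have numbers as strong as hits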
Target sequence (P9WFX0 whole entry, looked up): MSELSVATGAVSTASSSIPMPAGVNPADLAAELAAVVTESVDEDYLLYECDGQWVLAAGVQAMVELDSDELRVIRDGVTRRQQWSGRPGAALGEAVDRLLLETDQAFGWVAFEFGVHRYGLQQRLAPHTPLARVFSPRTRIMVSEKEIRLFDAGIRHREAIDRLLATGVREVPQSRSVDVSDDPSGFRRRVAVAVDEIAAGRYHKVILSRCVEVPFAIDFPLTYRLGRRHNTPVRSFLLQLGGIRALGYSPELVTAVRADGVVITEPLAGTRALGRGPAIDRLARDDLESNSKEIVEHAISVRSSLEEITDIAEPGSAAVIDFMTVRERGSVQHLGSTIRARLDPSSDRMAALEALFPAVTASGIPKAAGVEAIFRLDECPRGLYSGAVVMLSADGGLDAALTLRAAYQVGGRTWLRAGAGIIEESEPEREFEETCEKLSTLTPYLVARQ
Mtb MenB inh: inhibitors of Mycobacterium tuberculosis MenB enzyme. MenB enzyme assay, absorbance read-out; some hits fall short of the stated cut. inhibition, %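 (about 12 µg/mL by stock and volumes)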. hit rate 0.43% among 100,000;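 active = mean of two replicates above 30%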;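 also: 0% = no compound and 100% = wells with inactive enzyme; the first replicate is given; strong numbers were not always called active; inactives centre near -10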
Target sequence (P9WNP5 whole entry, looked up): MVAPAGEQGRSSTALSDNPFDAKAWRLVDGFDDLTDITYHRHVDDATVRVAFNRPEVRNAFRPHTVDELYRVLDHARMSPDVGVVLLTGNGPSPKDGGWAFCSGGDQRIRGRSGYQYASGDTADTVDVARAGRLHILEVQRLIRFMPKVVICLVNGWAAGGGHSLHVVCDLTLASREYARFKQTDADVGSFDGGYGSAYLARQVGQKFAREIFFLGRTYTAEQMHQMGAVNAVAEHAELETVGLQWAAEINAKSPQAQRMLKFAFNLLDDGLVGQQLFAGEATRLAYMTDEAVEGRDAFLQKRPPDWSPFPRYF
Polio RdRp inh: inhibitors of poliovirus RNA polymerase binding and polymerization; P03300; poliovirus polymerase elongation, fluorescence polarization; hits give low values; % elongation, % (compound at 16.7 µg/mL); hit rate 0.66% among 150,000; in the data active = % elongation below about 90%; also: some results filed as inactive read as strong as hits
Polio RdRp inh intensity: recorded beside Polio RdRp inh, whose call it bears; % elongation; measured here: total intensity read-out; formula for this scale not given here;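 total fluorescence in place of polarization; lower means less elongation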
* = called active by the depositor; / = not tested or not shown; & = joins results of further samples.

Screens in order: MbtI inh	Mtb MenB inh	Polio RdRp inh	Polio RdRp inh intensity
O=C(CN1C(=O)c2ccccc2C1=O)c1ccc(F)cc1
    -12.4	5.6	106.0	114.0
O=C(Cn1cc(C(F)(F)F)ccc1=O)N1CCc2ccccc21
    -23.1	-2.7	100.0	107.0
O=C(Nc1ccccc1-c1ccccc1)NC1CCN(CC(=O)N2CCOCC2)CC1
    -7.4	-16.7	101.0	99.0
COc1ccc(NC(=O)CN2CCC(c3nc4ccc(Cl)cc4[nH]3)CC2)c(OC)c1
    -5.2	-0.5	100.0	103.0
COc1c(F)c(F)c(/C=C/CN2CCOCC2)c(F)c1F
    -6.2	5.0	101.0	103.0
CCOC(=O)c1oc2ccccc2c1N=Cc1c(O)n(CCOC)c(=S)[nH]c1=O
    -38.5	-19.0	109.0	109.0
CC(C)N(C(=S)Nc1cccnc1)c1ccccc1
    0.7	-22.0	106.0	95.0
COc1ccc(-c2noc(N3CCCC(C(=O)NCCc4ccc(OC)c(OC)c4)C3)n2)cc1 (stereo unspecified)
    -3.7	-18.8	101.0	106.0
Cc1cc(=O)n(CCCO)c(O)c1C#N
    82.3	-6.4	102.0	104.0
Cc1cc(C(=O)CC2=C(O)CC(C)(C)CC2=O)c(C)n1Cc1cccs1
    4.5	-0.2	103.0	98.0
CCCc1nnc(SCC(=O)NC2CC3CCC2C3)o1 (stereo unspecified)
    22.6	-9.9	100.0	104.0
C=CC[n+]1ccccc1/C=N/O
    2.8	-27.8	103.0	98.0
CC(C)C(N)c1ccccc1 (stereo unspecified)
    12.6	-10.5	98.0	102.0
CC1(C)CC(=O)C=C(Sc2nc3ccccc3o2)C1
    -0.8	9.6	102.0	108.0
Cc1ccc(N2CCN(c3cnn(-c4nc5ccccc5s4)c(=O)c3N(C)C)CC2C)cc1 (stereo unspecified)
    -9.2	1.4	104.0	105.0
O=C(CNC1CCCC1)Nc1ccc(N2CCCC2)cc1
    11.8	-8.1	101.0	103.0
N/N=C(/C(=O)c1ccccc1)c1ccccc1
    10.9	-6.6	103.0	111.0
O=C(Cn1nnc2ccccc21)Nc1ccc2ccccc2c1
    -34.7	/	100.0	102.0
CCc1ccc(NC(=O)CCN2C(=O)c3ccccc3C2=O)cc1
    -1.6	-2.7	98.0	100.0
O=C(/C=C/c1ccc2c(c1)OCO2)NC1=NCCS1
    -12.9	7.5	105.0	102.0
N#C/C(N=Cc1ccc(Cl)cc1)=C(\C#N)NC(=O)Nc1ccc(OC(F)(F)F)cc1
    -17.0	4.0	104.0	109.0
COc1cc(C2Nc3cc(Cl)ccc3O2)cc(OC)c1OC (stereo unspecified)
    11.9	-10.4	102.0	104.0
COc1ccc(C(=O)NC(CC(=O)O)c2ccc(OC)cc2)cc1 (stereo unspecified)
    -4.5	-21.0	101.0	100.0
CC1CCC(NCC(O)c2ccccc2)CC1 (stereo unspecified)
    3.8	11.6	106.0	96.0
CCOC(=O)N1CCC(NC(=O)Nc2ccc(C)c(Cl)c2)CC1
    11.5	10.8	104.0	96.0
COc1ccc2[nH]c(C(=O)N(C)c3ccc(F)cc3F)cc2c1
    5.3	-9.1	108.0	104.0
N#Cc1ccccc1OCC(=O)N(Cc1ccccc1)C1C=CS(=O)(=O)C1 (stereo unspecified)
    -22.9	-5.8	103.0	104.0
COc1c2c(nc3occc13)C(CC=C(C)C)(OC)C(OC(C)=O)CC2 (stereo unspecified)
    15.2	16.3	102.0	105.0
CCC(=O)Nc1nc2ccc(CC)cc2s1
    88.6	-15.0	99.0	101.0
CN1C(=O)c2ccc(NC(=O)c3cccc4ccccc34)cc2C1=O
    4.2	-0.9	101.0	96.0

Rewritten field by field: part of the list above
O=C(Nc1ccccc1-c1ccccc1)NC1CCN(CC(=O)N2CCOCC2)CC1
  MbtI inh: -7.4; Mtb MenB inh: -16.7; Polio RdRp inh: 101.0; Polio RdRp inh intensity: 99.0
COc1ccc(NC(=O)CN2CCC(c3nc4ccc(Cl)cc4[nH]3)CC2)c(OC)c1
  MbtI inh: -5.2; Mtb MenB inh: -0.5; Polio RdRp inh: 100.0; Polio RdRp inh intensity: 103.0

The list goes on:
Screens in order: MbtI inh	Mtb MenB inh	Polio RdRp inh	Polio RdRp inh intensity
COc1cccc(-n2cc(C(=O)N(Cc3ccccc3)C(C)C)c3ccccc3c2=O)c1
    -20.3	-24.0	102.0	103.0
CCCNC(=O)C1CCC(CNS(=O)(=O)c2ccc3c(c2)N(C(C)=O)CCO3)CC1 (stereo unspecified)
    -14.1	1.1	100.0	103.0
Brc1cccc(-c2nnc3sc(CN4CCc5ccccc5C4)cn23)c1
    50.4	-16.3	98.0	90.0
COc1cccc(C(=O)CS)c1
    86.7*	-9.7	101.0	102.0
COC(=O)c1cc2sc(Cl)cc2[nH]1
    16.1	3.2	101.0	106.0
CN1CCN(C(=O)COc2ccccc2O)CC1
    -6.1	/	104.0	108.0
O=C(O)/C=C/C=C/c1ccc(Cl)cc1
    62.2	11.0	99.0	97.0
CC(C(=O)NCc1ccccn1)N(c1ccccc1)S(C)(=O)=O (stereo unspecified)
    3.1	-1.4	101.0	101.0
CCc1ccc(C2C(C(=O)OC)=CN(CC3CCCO3)C=C2C(=O)OC)cc1 (stereo unspecified)
    89.2	-65.5	102.0	100.0
CCc1ccc(-c2[nH]nc3nc(-c4ccc(O)cc4)cc(C(=O)O)c23)cc1
    -7.1	-8.8	103.0	101.0
CC1CCCCC1NC(=O)COC(=O)c1ccccc1NCCO (stereo unspecified)
    100.4	-16.1	100.0	97.0
CC(C)(C)C(O)Cn1c(=N)n(CCN2CCCCC2)c2ccccc21 (stereo unspecified)
    -2.8	10.1	101.0	107.0
CCN(CC)C(=O)c1sc(NC(=S)N2CCN(C(=O)c3ccco3)CC2)c(C(=O)OC)c1C
    -6.2	-28.4	101.0	103.0
COc1cccc(NC(=S)N2CCCCC2)c1
    8.3	1.6	99.0	98.0
CN(C(=O)CSc1nc2ncccc2[nH]1)c1ccccc1
    -1.4	-12.9	102.0	108.0
CC1Cc2ccccc2N1C(=O)CN(C)CC(=O)Nc1ccc(OC(F)(F)F)cc1 (stereo unspecified)
    -8.5	-18.0	102.0	105.0
CC[n+]1c(C)sc2sc3ccccc3c21
    19.6	-45.0	103.0	102.0
CCN(CC(=O)NCc1ccc(F)cc1)C(=O)c1cc2ccccc2o1
    0.1	6.5	105.0	103.0
CCOC(=O)c1oc2ccccc2c1COC(=O)c1cccnc1SC
    -8.7	-19.9	104.0	108.0
Cc1ccc(C(=O)OCC(=O)N2CC(C)OC(C)C2)cc1 (stereo unspecified)
    -7.7	/	101.0	99.0
Cc1ccc(/C=C2/CC(C)C/C(=C\c3ccc(C)o3)C2=O)o1 (stereo unspecified)
    92.2*	-47.6	120.0	160.0
Cc1ccc(-c2cc(C(F)(F)F)nn2-c2ccc(S(N)(=O)=O)cc2)cc1
    -8.4	2.9	100.0	105.0
CCC(C(=O)Nc1nn2c(-c3ccccc3)nnc2s1)c1ccccc1 (stereo unspecified)
    -15.4	-0.4	99.0	100.0
Cc1ccc(-c2cc(C(=O)N(C)Cc3c(C)nn(C)c3C)c3cc(Br)ccc3n2)cc1
    8.8	-9.4	102.0	104.0
Cc1oc(C(=O)O)cc1CSC(C)C(=O)O (stereo unspecified)
    2.1	-55.2	103.0	100.0
O=C(C[n+]1ccc(/C=N/O)cc1)Nc1ccc(C(=O)O)cc1
    9.9	-9.3	99.0	102.0
O=C(O)c1[nH]c2ccccc2c1Br
    17.6	/	99.0	103.0
COc1ccccc1NC(=O)COC(=O)C1(c2ccc(F)cc2)CCCC1
    -6.0	/	101.0	104.0
CC1CCCC(C)N1CCC(=O)NN (stereo unspecified)
    -1.4	-18.9	103.0	110.0
COc1cc(NS(=O)(=O)c2ccc3c(c2)CCN3C(=O)CCC(=O)O)c(C(=O)O)cc1OC
    5.5	-6.5	101.0	105.0

(further entries)
Screens in order: MbtI inh	Mtb MenB inh	Polio RdRp inh	Polio RdRp inh intensity
Cc1noc(NS(=O)(=O)c2ccc(NC(=O)c3ccccc3)cc2)c1C
    1.2	-3.5	100.0	104.0
C=CCc1ccccc1OCC(N)=O
    -18.6	-33.9	101.0	104.0
COc1ccc(/C=C2/SC(=O)N(CCCC(=O)Nc3ccccc3O)C2=O)cc1
    4.0	-15.0	101.0	102.0
Cc1cc(C)cc(Oc2c(C)oc3c(CN4CCC(C)CC4)c(O)ccc3c2=O)c1
    -81.7	1.1	101.0	102.0
CC(N)CCCC(C)(C)O (stereo unspecified)
    -18.2&-19.8	4.8&1.6	98.0&100.0	101.0&101.0
CN(C)c1cccc(C(=O)OCc2cc(Cl)cc3c2OCOC3)c1
    104.1	12.0	99.0	95.0
Cc1ccc(NC(=O)CN2C(=O)C3(OCCCO3)c3ccccc32)cc1C
    1.9	-33.7	102.0	98.0
CCC(C)c1ccccc1NC(=O)CNc1ccc(F)cc1 (stereo unspecified)
    -1.1	/	102.0	103.0
Cc1nnc(SC2CCN(S(=O)(=O)c3cccc(C(F)(F)F)c3)CC2)s1
    -3.0	-18.1	106.0	99.0
COC(=O)CCNc1n[nH]c(=O)[nH]c1=O
    2.1	-16.7	106.0	101.0
COc1ccccc1-c1cc(=O)n(CC(=O)O)c2c1CCCC2
    -2.7	-13.9	104.0	108.0
COc1ccc(C2NC(=O)Cc3cc(OC)c(OC)cc32)cc1 (stereo unspecified)
    -6.7	-4.9	99.0	100.0
O=C1CSC(=Nc2cccc(C(=O)O)c2)N1
    -6.5	1.0	103.0	102.0
O=C(OC1CCOC1=O)c1cccnc1Nc1cccc(C(F)(F)F)c1 (stereo unspecified)
    54.0	-30.9	100.0	95.0
O=C1/C(=C/C2CCCO2)CC/C1=C\C1CCCO1 (stereo unspecified)
    /	-54.1	124.0	211.0
CN(C(=O)COn1nnc2ccccc21)C1CCCCC1
    -2.7	-20.9	102.0	101.0
CCOc1ccc(C(=S)N(C)C)cc1
    78.5*	-15.9	100.0	100.0
COC(=O)C1CC(O)CN1c1nc(-c2ccccc2)nc2ccccc12 (stereo unspecified)
    11.1	-21.7	105.0	107.0
C=Cc1c(C)/c2[n-]/c1=C\c1[n-]c(c(CC)c1C)/C=c1\[n-]c3c(c1C)C(=O)C(C(=O)[O-])C=3c1[n-]c(c(C)c1CCC(=O)[O-])\C=2.[Cu].[Na+].[Na+] (stereo unspecified)
    14.7	-3.6	95.0	97.0
COc1ccc2oc(=O)cc(O)c2c1
    /	-88.5	107.0	107.0
C=CCn1c(SCC(=O)N2CC(C)CC(C)C2)nc2ccccc2c1=O (stereo unspecified)
    -9.1	-5.0	104.0	108.0
NNC(=O)C(Sc1n[nH]c(=O)[nH]c1=O)c1ccccc1 (stereo unspecified)
    1.1	3.2	101.0	100.0
CC[C@@H](CO)NC(=O)[C@@H]1C=C2c3cccc4[nH]cc(c34)C[C@H]2N(C)C1
    -278.4	-4.4	101.0	101.0
CCN(C(=O)CSc1ncn[nH]1)c1ccccc1
    -4.8	-3.1	100.0	104.0
C=CCn1c(N2CCCC2)nc2c1c(=O)[nH]c(=O)n2C
    22.8	-22.5	105.0	104.0
COc1ccc(C(CC(=O)Nc2cc(OC)cc(OC)c2)n2cccc2)cc1 (stereo unspecified)
    12.9	-7.7	102.0	106.0
O=c1c2ccccc2[se]n1-c1ccccc1
    103.2*	4.6&4.8	99.0&95.0&98.0	102.0&100.0&98.0
N#Cc1c(N)nc(Sc2ccc(Cl)cc2)c(C#N)c1-c1cccs1
    -3.9	2.9	103.0	100.0
Nc1nc2nc(N3CCOCC3)[nH]c2c(=O)[nH]1
    -0.1	1.2	99.0	102.0
CC1(C)Cc2ccccc2C(CSc2nnc3c(n2)[nH]c2ccccc23)=N1
    /	-31.8	103.0	107.0

The last 7 records of the part above lead into the next:
Screens in order: MbtI inh	Mtb MenB inh	Polio RdRp inh	Polio RdRp inh intensity
CCN(C(=O)CSc1ncn[nH]1)c1ccccc1
    -4.8	-3.1	100.0	104.0
C=CCn1c(N2CCCC2)nc2c1c(=O)[nH]c(=O)n2C
    22.8	-22.5	105.0	104.0
COc1ccc(C(CC(=O)Nc2cc(OC)cc(OC)c2)n2cccc2)cc1 (stereo unspecified)
    12.9	-7.7	102.0	106.0
O=c1c2ccccc2[se]n1-c1ccccc1
    103.2*	4.6&4.8	99.0&95.0&98.0	102.0&100.0&98.0
N#Cc1c(N)nc(Sc2ccc(Cl)cc2)c(C#N)c1-c1cccs1
    -3.9	2.9	103.0	100.0
Nc1nc2nc(N3CCOCC3)[nH]c2c(=O)[nH]1
    -0.1	1.2	99.0	102.0
CC1(C)Cc2ccccc2C(CSc2nnc3c(n2)[nH]c2ccccc23)=N1
    /	-31.8	103.0	107.0
O=C1N(Cc2ccccc2)C(c2cccc(F)c2)C1(F)F (stereo unspecified)
    -5.8	8.8	99.0	106.0
COC(=O)C1=CN(C(C)C)C=C(C(=O)OC)C1c1ccc2c(c1)OCO2
    -211.0	-1.0	101.0	103.0
CCOC(=O)c1ccc(N2C(=O)CC(NC(C)(C)C)C2=O)cc1 (stereo unspecified)
    2.6	-1.7	103.0	103.0
O=C(CNC(=O)c1ccccc1)NCC1COc2ccccc2O1 (stereo unspecified)
    -9.8	1.9	105.0	107.0
COC(=O)C1=C(C)N(c2ccc(C)cc2)/C(=C/c2ccc(OC)cc2)C1=O
    2.8	-43.6	102.0	110.0
C/C(=C\C(=Nc1ccccc1O)c1ccccn1)c1ccccn1
    -7.5	-28.9	103.0	108.0
CN(CCNS(=O)(=O)c1ccc(-c2cc(C(F)(F)F)no2)s1)C1CCCCC1
    -1.5	-27.8	104.0	102.0
